Bioassay records (PubChem)
Ecoli rRNA inh = inhibitors of bacterial rRNA selective over humanized ribosomes; GFP signal change (wild-type ribosome), % (test concentration not listed); 350,000 tested, 1.6% active; E. coli WT GFP vs humanized-ribosome RFP mutants, fluorescence, 24 h; active compounds read low; DMSO median 0, no signal -100;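 active means significant combined selectivity score with lowered wild-type GFP, culture density cut under 30%, mutant RFP and density less affected; inactive means any of these conditions unmet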; further: one replicate is shown; some compounds called inactive have numbers as strong as hits
Beta2AR agonist = activates human beta-2 adrenergic receptor causing internalization | Am2.2-beta2AR cells, FAP receptor internalization, flow cytometry; reference of the scale not given here | P07550 | 340,000 tested, 0.43% active | response, % (test concentration not listed);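 active means response above a set limit, near 3 SD of response in nonfluorescent compounds, cut at about 42% in these data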;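 further: stock transfer was 100 nL into about 11 µL; a reference agonist was the positive control; negative values mostly stem from fluorescent compounds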
Target sequence (P07550 whole entry, looked up): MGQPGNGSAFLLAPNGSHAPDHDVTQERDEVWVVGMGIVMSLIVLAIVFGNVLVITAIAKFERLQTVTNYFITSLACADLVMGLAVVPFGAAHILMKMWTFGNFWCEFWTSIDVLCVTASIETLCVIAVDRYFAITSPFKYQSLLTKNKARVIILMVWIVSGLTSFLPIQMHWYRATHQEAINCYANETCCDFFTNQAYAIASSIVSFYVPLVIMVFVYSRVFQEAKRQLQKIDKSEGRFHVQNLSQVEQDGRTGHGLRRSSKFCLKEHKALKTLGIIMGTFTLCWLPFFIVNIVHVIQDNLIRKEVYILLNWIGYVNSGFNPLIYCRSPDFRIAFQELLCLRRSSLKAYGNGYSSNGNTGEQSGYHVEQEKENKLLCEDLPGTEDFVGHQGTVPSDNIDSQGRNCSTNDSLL
FGF22 binding = binders of recombinant human FGF22 by thermal shift; calls only at 9.99 µM; Q9HCT0; 340,000 tested, 1.5% active; SYPRO orange fluorescence; percent of sucrose octasulfate shift, DMSO zero;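 active means melting point raised past a set limit in the mean and every replicate; three in four hits are not shown here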
Target sequence (Q9HCT0 whole entry, looked up): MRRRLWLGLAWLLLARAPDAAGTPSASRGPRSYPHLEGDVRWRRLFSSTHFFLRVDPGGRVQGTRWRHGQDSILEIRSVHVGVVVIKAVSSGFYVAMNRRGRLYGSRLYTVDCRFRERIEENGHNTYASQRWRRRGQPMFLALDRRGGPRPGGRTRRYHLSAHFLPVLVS
E coli growth = E. coli growth inhibition | Escherichia coli growth, OD600, 23 h; active compounds read low | OD600 absorbance (concentration not given with the values) | 330,000 tested, 0.21% active;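 active means OD600 absorbance below the run mean of sample wells minus 3.6 SD, in any replicate, cut at about 0.56 in these data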;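 further: stock transfer was 300 nL into about 60 µL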
HNF4A DNA FP = change in binding of human HNF4 alpha to DNA; HNF4a-FITC DNA binding, fluorescence polarization, 1 h; activity change, % at 10 µM; 360,000 tested, 0.3% active; AID 1224865; in the data active means activity change above about 30%, passing the limit was not always enough;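 further: controls were the assay level and a saturating level of protein; the project sought stronger binding though the title names inhibitors; some compounds called inactive have numbers as strong as hits; positive values seem to mean higher polarization but the record does not say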
UCH37 DUB inh = inhibitors of human deubiquitinating enzyme UCH37; purified proteasome/UCH37, Ub-AMC cleavage fluorescence; 330,000 tested, 0.33% active; inhibition, % (no concentration beside the values);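 active means mean of two replicates above 20%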;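 further: 0% = compound-free wells with enzyme and 100% = wells lacking proteasome; stock transfer was 100 nL into about 20 µL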
Target sequence (Q9Y5K5 whole entry, looked up): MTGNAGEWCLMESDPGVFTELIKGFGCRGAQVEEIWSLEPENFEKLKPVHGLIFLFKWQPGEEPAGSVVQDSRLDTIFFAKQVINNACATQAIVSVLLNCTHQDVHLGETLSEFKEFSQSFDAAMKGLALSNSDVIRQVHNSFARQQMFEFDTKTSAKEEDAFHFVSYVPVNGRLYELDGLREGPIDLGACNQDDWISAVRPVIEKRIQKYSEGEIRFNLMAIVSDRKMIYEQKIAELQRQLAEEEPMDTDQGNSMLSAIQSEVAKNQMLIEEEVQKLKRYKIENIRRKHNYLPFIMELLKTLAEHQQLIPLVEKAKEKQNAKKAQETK
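Material: human UCH37 enzyme supplied as purified proteasome complex / Amount: 0.15 nM proteasome as dispensed / Buffer or medium: pH 7.4 Tris-HCl (50 mM) with ovalbumin, ATP-MgCl2, DTT / Times: preincubation 30 min, reaction 25 min, room temperature / Technique: AMC fluorescence from Ub-AMC cleavage, excitation 355 nm, emission 460 nm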
ALR inh = human ALR oxidase inhibition via reduced H2O2. P55789. purified ALR, DTT oxidation, H2O2 HRP-luminol luminescence. inhibition, % (test concentration not listed). 290,000 tested, 3.8% active;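 active means mean and each replicate at 75% or more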;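 further: stock transfer was 7.5 nL into about 7.5 µL; 0% = neutral wells and 100% = wells with inactivated enzyme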
Ecoli rRNA inh OD600 = also measured in Ecoli rRNA inh; calls as there; OD600 change, %; measured here: OD600 growth;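 optical density of the mix in the first replicate; 0 = DMSO median and -100 = no signal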
Ecoli rRNA inh RFP = second read-out of Ecoli rRNA inh, no call of its own (marks repeat the call); RFP signal change, %; measured here: RFP humanized mutant strains;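 first replicate; 0 = DMSO median and -100 = no signal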
Starred values were filed as active, the others as inactive; i = inactive; x = not tested or not shown; & = joins results of further samples. These rows are one share of the data; the hit share may differ from the screen's.

SMILES	Ecoli rRNA inh	Ecoli rRNA inh OD600	Ecoli rRNA inh RFP	Beta2AR agonist	FGF22 binding	E coli growth	HNF4A DNA FP	UCH37 DUB inh	ALR inh
CCOC(=O)C1CCCCC12C(C#N)=C(N)Oc1n[nH]c(C)c12 (centres undefined)	x	x	x	2	x	0.72	-5.0	4.1	-2
C=CCn1c(O)c(/C=N/N2CCOCC2)c(=O)[nH]c1=S	10	10	0.2	8	i	0.72	-0.6	13	14
CCC(C)NC(=O)CN1C(=O)CN=C(c2ccccc2)c2ccccc21 (centres undefined)	12	10	-3.3	5	x	0.69	-1.6	-1.9	-4
CCC1(Oc2ccccc2)C(=O)NC(=O)NC1=O	14	15	4.4	-3	i	0.7	2.8	3.4	x
COc1ccc(CCn2c(O)c(C=NCCCn3ccnc3)c(=O)[nH]c2=O)cc1OC	16	14	1.9	1	x	0.67	-0.7	3.1	-2
O=C1CN=C(c2ccccc2)c2ccccc2N1Cc1ccc(C(F)(F)F)cc1	x	x	x	-1	x	0.65	3.3	1.1	-3
CCC(=NCCCN1CCOCC1)c1c(O)n(-c2ccccc2C)c(=O)[nH]c1=O	x	x	x	-2	i	0.65	-1.5	6.4	1
OC1CCCCC1N1CCC(c2ccccc2)CC1 (centres undefined)	-16	-33	-1.7	-7	i	0.72&0.68	-2.0	2.2	x
CC(=NCCC1=CCCCC1)c1c(O)n(-c2ccccc2)c(=O)[nH]c1=O	11	13	-0.6	-4	x	0.71	0.2	3.7	-6
CC(=O)Nc1ccc(N=Cc2c(O)n(Cc3ccco3)c(=O)[nH]c2=O)cc1	-13	-9	3.0	32	i	0.68	-3.5	4.6	-11
NN=C(N)N	0	12	1.0	-4	i	0.66	2.9	1.0	38
O=C(O)c1ccc(N=Cc2c(O)n(Cc3ccc(F)cc3)c(=O)[nH]c2=O)cc1	12	9	-0.8	4	i	0.69	17	10	3
CN(C)c1ccc(/C=C2\C(=O)NC(=O)N(CCc3ccc(F)cc3)C2=O)cc1	12	3	21	12	i	0.61	10	7.5	12
O=c1c2ccccc2nc(-c2ccoc2)n1-c1ccccc1	7	2	-10	-7	i	0.75	-1.6	8.5	1
CCn1c(O)c(C=NCCc2c[nH]c3ccccc23)c(=O)[nH]c1=O	x	x	x	9	x	0.72	4.0	1.2	6
Cc1nc2ccc(Cl)cc2c(=O)n1-c1cccc(Cl)c1	0	2	-1.0	1	i	0.66	1.2	0.5	-2
COc1ccc(-c2n(-c3ccccn3)c3ccccc3[n+]2-c2ccccn2)cc1	-8	-2	-0.2	4	i	0.67	0.9	-3.6	x
O=C1NC(=O)C(=Cc2ccc(Cl)cc2)C(=O)N1	22	30	0.1	x	i	x	0.9	x	x
N=C(N)c1c(O)n(C2CCCCC2)c(=O)n(C2CCCCC2)c1=O	x	x	x	10	x	0.75	-4.2	0.7	-1
Cc1cccc(C)c1-n1nnnc1C(c1cccc2ccccc12)N1CCC(n2c(=O)[nH]c3ccccc32)CC1 (centres undefined)	8	2	1.3	x	i	x	-2.6	x	x
O=c1[nH]c(=O)n(Cc2ccccc2)c(O)c1/C=N/Nc1c(F)c(F)c(F)c(F)c1F	12	2	3.6	3	i	0.64	27	1.2	x
CCCNC(=O)N1[C@H]2CC[C@@H]1C(C(=O)OC)=C(c1ccc(F)cc1OCc1ccccc1)C2	x	x	x	-4	x	x	-2.7	0.7	-5
CCOC(=O)C1(c2ccccc2)CCN(CCC(=O)Nc2cccc(Br)c2)CC1	-62	-78	-19	19	i	0.61	-1.5	3.3	x
CS(=O)(=O)c1ccc(C2=C(CNC(=O)c3cccnc3)[C@H]3CC[C@@H](C2)N3Cc2ccco2)cc1	6	14	-2.4	x	i	x	-3.3	x	x
CN(C)C=C1C(=O)N(C2CCCCC2)C(=O)N(C2CCCCC2)C1=O	x	x	x	-1	x	0.71	0.0	2.3	-16
SMILES	Ecoli rRNA inh	Ecoli rRNA inh OD600	Ecoli rRNA inh RFP	Beta2AR agonist	FGF22 binding	E coli growth	HNF4A DNA FP	UCH37 DUB inh	ALR inh
N=C1c2ccccc2CN1NC(=O)c1ccc(Br)o1	5	12	0.6	4	i	0.7	0.6	2.7	23
c1ccc2[nH]c(CCNC3CCCCC3)nc2c1	x	x	x	-5	x	0.7	8.3	-2.3	-15
COC(=O)c1c(C)[nH]c(C(=O)C(C)[N+]23CCN(CC2)CC3)c1C (centres undefined)	3	5	-3.6	10	i	0.69	-1.6	1.3	-5
Cc1ccc(Cn2cc(C=O)c3ccccc32)cc1	-19	-15	-1.6	-6	i	0.67	1.4	0.6	0
CCOC(=O)c1c(C=O)c2ccccc2n1Cc1ccccc1F	3	1	4.5	11	i	0.67	-0.5	2.5	2
O=C1NC(=O)N(Cc2ccccc2)C(=O)/C1=C\c1ccco1	24	26	9.4	58*	x	0.6	0.1	0.9	6
CC(C)CCNC(=O)CN1C(=O)CN=C(c2ccccc2)c2ccccc21	14	8	1.9	8	i	0.67	4.1	3.5	-4
Cc1ccsc1C(=O)C1CCCN(Cc2cnc(N3CCOCC3)s2)C1 (centres undefined)	11	8	-2.2	1	x	0.71	-1.4	5.7	2
Cc1ccccc1NC(=O)CCl	1	8	6.2	2	i	0.67	-3.9	2.0	4
O=c1[nH]c(=O)n(Cc2ccco2)c(O)c1C=NCCCn1ccnc1	x	x	x	1	x	0.74	2.5	1.3	2
COc1ccc(N2C(=O)NC(=O)/C(=C\c3cn(C)c4ccccc34)C2=O)cc1	14	7	-1.8	9	x	0.62	108*	0.6	0
COc1cccc(N2C(=O)NC(=O)/C(=C/c3ccc([N+](=O)[O-])s3)C2=O)c1	-4	7	3.9	-43	x	x	-6.1	x	-5
O=C(c1cc2ccccc2oc1=O)N1CCC2(CC1)OCCO2	x	x	x	-3	x	0.63	1.8	-1.3	8
CCCNS(=O)(=O)c1ccc(OCC(=O)N2CCN(Cc3ccc4c(c3)OCO4)CC2)cc1	x	x	x	7	x	0.73	2.5	1.9	-14
CCCCCCCCn1sccc1=O	-57	-81	-20	35	i	x	-2.8	x	23
CCn1nc(/C=C/c2ccccc2)nc2c(=O)n(C)c(=O)nc1-2	-46	-76	-13	68*	i	0.62	107*	96*	x
Cc1ccc(C2N3CCCN23)cc1 (centres undefined)	10	12	0.3	2	i	0.69	1.7	1.7	4
O=C(CCCc1ccccc1)NCCc1cnc[nH]1	5	12	-0.6	14	i	0.68	-1.2	-1.9	0
COC1CC2C=C(C)C=CC=CC(=O)NC(c3ccccc3)CC=CCCC(O)CC(=O)C2=C1O (centres undefined)	7	17	7.6	x	i	x	-11	x	x
Cc1c(CCC(=O)N2C[C@H]3C[C@@H](C2)c2cccc(=O)n2C3)c(=O)oc2c(C)c(O)ccc12	-54	-77	-34	x	i	x	5.4	x	x
COc1ccc(CN2CCCC(C(=O)c3ccc(Cl)cc3)C2)c(OC)c1 (centres undefined)	-10	-10	-0.6	0	i	0.62	-1.7	2.3	0
CC1(C)N=C(c2ccccc2)[C@@H]2C(c3ccc([N+](=O)[O-])cc3)N21 (some centres undefined)	5	3	-7.9	-18	i	0.69	7.0	4.7	56
CCC(=O)O[C@H]1CC[C@H]2[C@@H]3CCC4=CC(=O)CC[C@]4(C)[C@H]3CC[C@]12C	-36	-64	1.0	-23	i	0.75	0.3	1.7	x
Cc1cccc(CN2CCCC(C(=O)c3cccc(OC(C)C)c3)C2)n1 (centres undefined)	x	x	x	-8	x	0.7	1.6	1.4	-9
O=C1NC(=O)C(Cc2ccccc2)(Cc2ccccc2)C(=O)N1	-3	-16	3.1	-6	i	x	-4.3	x	x

Next part (5 carried over from the part before).
SMILES	Ecoli rRNA inh	Ecoli rRNA inh OD600	Ecoli rRNA inh RFP	Beta2AR agonist	FGF22 binding	E coli growth	HNF4A DNA FP	UCH37 DUB inh	ALR inh
COc1ccc(CN2CCCC(C(=O)c3ccc(Cl)cc3)C2)c(OC)c1 (centres undefined)	-10	-10	-0.6	0	i	0.62	-1.7	2.3	0
CC1(C)N=C(c2ccccc2)[C@@H]2C(c3ccc([N+](=O)[O-])cc3)N21 (some centres undefined)	5	3	-7.9	-18	i	0.69	7.0	4.7	56
CCC(=O)O[C@H]1CC[C@H]2[C@@H]3CCC4=CC(=O)CC[C@]4(C)[C@H]3CC[C@]12C	-36	-64	1.0	-23	i	0.75	0.3	1.7	x
Cc1cccc(CN2CCCC(C(=O)c3cccc(OC(C)C)c3)C2)n1 (centres undefined)	x	x	x	-8	x	0.7	1.6	1.4	-9
O=C1NC(=O)C(Cc2ccccc2)(Cc2ccccc2)C(=O)N1	-3	-16	3.1	-6	i	x	-4.3	x	x
CCC(=O)c1cn(Cc2ccccc2)c2ccccc12	-45	-72	-24	2	i	0.64	-4.5	5.8	-6
CC(=NCC1CCCO1)c1c(O)n(Cc2ccccc2)c(=O)[nH]c1=O (centres undefined)	x	x	x	-3	x	0.73	1.6	1.8	-12
Cc1ccc(S(=O)(=O)Oc2ccccc2C=C2C(=O)NC(=O)NC2=O)cc1	11	6	-0.7	x	i	x	-0.5	x	x
O=c1[nH]c(=O)n(Cc2ccccc2)c(O)c1C=Nc1ccc(CN2CCOCC2)cc1	x	x	x	3	x	0.79	2.3	-81	1
COc1ccc(C(CC(=O)c2ccc3c(c2)OCO3)c2c(O)c3ccccc3oc2=O)cc1OC (centres undefined)	-30*	-11*	-7.0*	x	i	x	-0.4	x	x
Cc1cc(N2C(=O)C3CCCN3C2c2sccc2C)no1 (centres undefined)	x	x	x	0	x	0.7	1.2	2.8	-10
C[C@]12CCC3C(CC[C@H]4C[C@@H](O)CC[C@]34C)C1C[C@@H](Br)[C@H]2O (some centres undefined)	-49	-68	-13	x	i	x	-2.1	x	-4

Profiles, quoted from the list:
Cc1cc(N2C(=O)C3CCCN3C2c2sccc2C)no1 (centres undefined) in the list: Ecoli rRNA inh = x; Ecoli rRNA inh OD600 = x; Ecoli rRNA inh RFP = x; Beta2AR agonist = 0; FGF22 binding = x; E coli growth = 0.7; HNF4A DNA FP = 1.2; UCH37 DUB inh = 2.8; ALR inh = -10
C=CCn1c(O)c(/C=N/N2CCOCC2)c(=O)[nH]c1=S in the list: Ecoli rRNA inh = 10; Ecoli rRNA inh OD600 = 10; Ecoli rRNA inh RFP = 0.2; Beta2AR agonist = 8; FGF22 binding = i; E coli growth = 0.72; HNF4A DNA FP = -0.6; UCH37 DUB inh = 13; ALR inh = 14
CCn1nc(/C=C/c2ccccc2)nc2c(=O)n(C)c(=O)nc1-2 in the list: Ecoli rRNA inh = -46; Ecoli rRNA inh OD600 = -76; Ecoli rRNA inh RFP = -13; Beta2AR agonist = 68*; FGF22 binding = i; E coli growth = 0.62; HNF4A DNA FP = 107*; UCH37 DUB inh = 96*; ALR inh = x
